Bioassay records from PubChem BioAssay.
PINK1 expr mod – changes PINK1 expression | 410,000 compounds, 0.2% hits | PINK1 immunofluorescence, high-content cytometry, 24 h | Potency, µM (titrated, usually from 76.6 µM), inactives show at the top dose activation (PINK1 increase), hits mostly activators; active = well fitted activation curve with a large enough effect; inconclusive = small, poorly fitted or top-dose-only effect; inactive = flat fitted curve, though single readings scatter; cell line not stated here;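 also: potency is read from the fitted curve at half-maximal effect; % of control where 0% means no effect; nearly all actives have a fitted effect of over 65% in size; a mitochondrial uncoupler was the plate control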
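PINK1 protein, normally rapidly degraded, was detected by immunofluorescence after 24 hour compound treatment of a stable cell line. Titration data (5 concentrations) came from laser-scanning cytometry, with CCCP-treated wells as controls.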
TRPV1 PAM – potentiators of human vanilloid receptor 1 (TRPV1) | Q8NER1 | TRPV1-expressing cells, Fluo-8 calcium influx, capsaicin EC20 potentiation; host cell line not named in the record; control for the full effect not named in the record | potentiation, % at 8.33 µM | 320,000 compounds, 0.02% hits | AID 540277; active means potentiation above 80%; inconclusive means 30% to 80%; inactive means below 30%; also: 0% is about no effect
Target sequence (Q8NER1 whole entry, looked up): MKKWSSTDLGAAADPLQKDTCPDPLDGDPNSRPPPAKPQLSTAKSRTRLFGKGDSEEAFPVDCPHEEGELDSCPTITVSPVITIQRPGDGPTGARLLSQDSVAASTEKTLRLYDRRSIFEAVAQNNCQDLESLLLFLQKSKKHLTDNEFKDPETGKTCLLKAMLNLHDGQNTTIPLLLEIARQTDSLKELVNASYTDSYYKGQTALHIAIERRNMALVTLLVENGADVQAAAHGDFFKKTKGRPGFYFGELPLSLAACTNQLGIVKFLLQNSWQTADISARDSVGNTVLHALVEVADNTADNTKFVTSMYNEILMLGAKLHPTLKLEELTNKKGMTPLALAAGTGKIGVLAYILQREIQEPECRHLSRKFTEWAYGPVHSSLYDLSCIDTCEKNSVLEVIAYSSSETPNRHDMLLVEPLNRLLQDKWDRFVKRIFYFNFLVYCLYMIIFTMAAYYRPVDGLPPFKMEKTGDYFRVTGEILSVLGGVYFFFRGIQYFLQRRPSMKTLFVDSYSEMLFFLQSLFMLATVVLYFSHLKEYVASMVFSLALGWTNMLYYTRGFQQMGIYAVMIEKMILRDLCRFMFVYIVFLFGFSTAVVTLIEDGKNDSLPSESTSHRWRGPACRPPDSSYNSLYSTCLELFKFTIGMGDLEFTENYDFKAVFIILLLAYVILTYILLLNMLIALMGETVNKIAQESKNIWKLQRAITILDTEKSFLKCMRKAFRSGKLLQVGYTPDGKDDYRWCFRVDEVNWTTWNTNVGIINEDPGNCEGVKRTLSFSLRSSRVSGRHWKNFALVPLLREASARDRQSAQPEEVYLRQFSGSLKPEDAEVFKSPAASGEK
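Fluo-8 calcium influx in TRPV1-expressing cells, kinetic read (ex 480/em 520 nm). Compound added and read 3 min for agonist activity, followed by capsaicin at EC20 final and 2 min further read for enhancement.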
D2 PAM – positive allosteric modulators of human D2 dopamine receptor. P14416. DiscoveRx D2 beta-arrestin cells, luminescence, 90 min; 100% = 57 uM dopamine signal. potentiation, % (no concentration beside the values). 360,000 compounds, 0.23% hits. AID 624464; active = potentiation of 50% or more; inconclusive = 30% to 50%; inactive = 30% or less;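 also: compound concentration not given in the record; tested on top of an EC20 dose of dopamine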
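PathHunter beta-arrestin assay in DiscoveRx D2 cells. Compounds were added with an EC20 of dopamine (50 nM final) for 90 min at 37 deg C. Luminescence was read 1 h after detection reagent, with 57 uM dopamine as the EC100 control.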
Sfp PPTase inh – inhibitors of Bacillus subtilis Sfp phosphopantetheinyl transferase | AID 1490 | Potency, µM, for inactives: max response, negative = inhibition, actives largely listed as inhibitors | 310,000 compounds, 3.5% hits | Biochemical Sfp PPTase activity, qHTS | Q9F4F7; active = well fitted inhibition curve with a large enough effect; inconclusive = small, poorly fitted or top-dose-only effect, or another doubt; inactive = no such curve, though single readings can be large or run the other way;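 also: the enzyme is Sfp with the accession as filed and its product quenches rhodamine fluorescence; potency is read from the fitted curve at half-maximal effect; 0% = enzyme reaction without inhibitor and -100% = no enzyme wells; top concentration of the series not given in the record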
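Fluorescence-quenching assay with 15 nM Sfp, 5 uM rhodamine-CoA and 12.5 uM BHQ-2-labelled ybbR peptide in pH 7.6 Hepes/MgCl2 buffer. Enzyme was pre-incubated with compound for 15 min at room temperature. Rate was taken from the 30-min fluorescence change (525/598 nm).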
CtBP-E1A blk – CtBP/E1A binding inhibition; activity change, % (no concentration beside the values); 340,000 compounds, 0.49% hits; AlphaScreen GST-E1A/His-CtBP binding, 1536-well; hits give low values; control for the full effect not named in the record; AID 651724; in the data active means activity change below about -65%; inconclusive means about -30% to -65%; inactive means above about -30%; also: % is scaled to controls: 0 for no effect and ±100 for the full control effect
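GST-E1A and His-tagged CtBP (125 nM each as 5X stock) were preincubated with pin-transferred compound for 2 h at 37 °C in the dark, then glutathione donor and nickel acceptor beads were added for 1 h before AlphaScreen reading.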
D2 ag – agonists of human D2 dopamine receptor (beta-arrestin); activation, % (no concentration beside the values); 360,000 compounds, 0.084% hits; AID 624465; DiscoveRx PathHunter D2 beta-arrestin, luminescence, 90 min; 100% = 57 uM dopamine signal; P14416; in the data active = activation above about 40%; inconclusive = about 15% to 40%; inactive = below about 15%; also: compound concentration not given in the record; the text of the record calls up to 30% inactive
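DiscoveRx PathHunter D2 beta-arrestin cells (2,100/well) attached overnight, then compound-stimulated 90 min at 37 C in HBSS/10 mM HEPES/0.1% Tween-20 buffer; beta-galactosidase complementation read by luminescence after 1 h at ambient temperature. Dopamine 57 uM final (EC100) as control.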
Six1-Eya2 blk – blocks human Six1 binding to Eya2. AID 651725. AlphaScreen GST-Six1/His-Eya2 binding, biochemical; hits give low values; control for the full effect not named in the record. 360,000 compounds, 0.56% hits. activity change, % (no concentration beside the values); in the data active = activity change below about -65%; inconclusive = about -30% to -65%; inactive = above about -30%; also: % is scaled to controls: 0 for no effect and ±100 for the full control effect
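Homogeneous AlphaScreen proximity assay pairing GST-Six1 with His-tagged Eya2 (added as 5X mix: 250 nM and 500 nM) in 50 mM Tris pH 8.0, 300 mM NaCl, 1 mM TCEP. Glutathione donor and nickel acceptor beads; 1 h, 37 °C, dark.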
* hit, by the source's call; ? = inconclusive; / = not tested or not shown; & = joins results of further samples; [ ] = remark or other dose.

Each structure is followed by: PINK1 expr mod	TRPV1 PAM	D2 PAM	Sfp PPTase inh	CtBP-E1A blk	D2 ag	Six1-Eya2 blk
- Cc1ccc(-n2c(C)cc(/C=N\NC(=O)CC(=O)NC(C)C)c2C)cc1
  -1.0%	11	-26	9%	0	-1.4	-9
- Cc1cc(C(=O)Nc2ccccc2C(=O)O)ccc1NC(=O)COc1cccc(C)c1C
  -1.0%	7	-3	20%	-5	-3.1	-7
- CN1C(=O)C2(OCC(CO)([N+](=O)[O-])CO2)c2ccccc21 (centres undefined)
  -1.2%	-2	-5	8%	0	-1.8	0
- O=C(O)C1CCN(c2ccc(Cl)nn2)CC1
  -1.1%	4	-8	15%	/	6.8	-5
- CCn1c(SCC(=O)Nc2ccccc2C(=O)OC)nnc1-c1ccc(N)cc1
  -0.6%[38.3 µM]	/	-9	7%	-4	-0.7	-3
- Cc1ccc(CSc2nc3c(c(N(C)C)n2)CCCC3)cc1
  5.7%	-10	-13	-15%	30	-6.5	39
- CCOc1cccc(CN2CCCC(C(=O)c3cccc(C(F)(F)F)c3)C2)c1O (centres undefined)
  -0.8%	-15	-18	2%	0	-2.9	-16
- O=C(c1cnn2c(C(F)F)cc(-c3ccccc3)nc12)N1CCN(Cc2ccc3c(c2)OCO3)CC1
  -1.2%	-3	-37	0%	-4	-6.2	-20
- COc1ccc(NC(=O)CSCC(=O)NCc2cccc(C(F)(F)F)c2)cc1
  2.8%	-2	0	/	0	1.4	0
- c1cncc(-c2cnc3ccccc3c2)c1
  -0.2%	-4	-7	/	2	-3.9	3
- CCN1CCN(C(c2cccnc2)c2cc(Cl)c3cccnc3c2O)CC1 (centres undefined)
  19%[38.3 µM]	8	-19	40µM*	-99*	-4.0	-90*
- CC(C)(C)C(=O)N1CCN(c2ccc(Cl)cc2[N+](=O)[O-])CC1
  0.8%	-5	-12	-2%	-14	-3.6	-2
- CCn1c(C)c(C(C)=O)c(N2CCC(C(N)=O)CC2)nc1=S
  /	11	5	-3%	-7	0.6	-1
- Cc1occc1C(=O)N/N=C/C=C/c1ccccc1
  0.1%	-10	-18	0%	/	7.5	5
- O=C(O)c1ccccc1NC(c1ccccc1)c1ccc(Cl)cc1 (centres undefined)
  0.7%	-2	21	19%	/	0.0	-4
- O=C(CSc1cccc(C(F)(F)F)c1)Nc1nnc(C2CC2)s1
  3.7%	/	-1	/	13	-0.8	1
- Cc1ccc(NC(=O)c2ccc(Cl)nc2)cc1
  3.0%	-11	-2	12%	11	-0.7	3
- Cc1cc(-c2nnc(SCCC(=O)Nc3ccccc3)o2)no1
  -0.5%	-3	5	5%	6	3.1	-10
- COc1ccc(OC)c(/C=N/NC(=O)C(=O)N2CCCCCC2)c1
  1.0%	-5	-18	5%	14	0.2	1
- ON1C2CCCCC2N(O)C1c1ccccc1C(F)(F)F (centres undefined)
  -1.8%	12	-22	5%	5	-6.3	3
- COc1cccc(C(=O)N2CCN(C(=O)C3COc4ccccc4O3)CC2)c1 (centres undefined)
  0.3%	-11	-7	-2%	11	-1.6	3
- CC(C)(C)[C@H]1C=C(C(=O)NCc2nc3ccccc3[nH]2)O[C@@H](OCCCCO)C1
  -1.0%	-13	-4	11%	2	-1.8	-4
- O=C(NCc1cccnc1)Nc1ccc(Cl)cc1Cl
  1.2%	-26	-11	13%	6	0.2	-1
- COc1ccccc1-c1cnc(C(O)c2ccc(C)cc2)[nH]1 (centres undefined)
  0.2%	/	-16	/	-3	-4.3	-12
- CCOc1ccc2nc(N3CCCC(C(=O)NCCCN4C(C)CCCC4C)C3)sc2c1 (centres undefined)
  3.3%	-2	-16	3%	0	-2.1	-4
- Cc1cccc(C)c1NC(=O)CNC(=O)C(C)N(C)CC(=O)Nc1ccc(F)cc1 (centres undefined)
  2.4%	4	-6	/	12	-0.3	6
- CCOCCCNC(=O)C1CCCN(S(=O)(=O)c2cccc3nsnc23)C1 (centres undefined)
  3.0%	2	-8	18%	0	-3.6	1
- COc1ccc(Cl)cc1NC(=O)c1nnn(CC(=O)Nc2cc(C)cc(C)c2)c1N
  1.9%	17	-4	-8%	5	-0.6	2
- CC(C)CO/C(=N/S(=O)(=O)c1ccccc1)c1ccccc1
  1.8%	11	-6	1%	1	-2.7	0
- CN(CC1CCCN(CCc2ccc(Cl)cc2)C1)C(=O)CC(F)(F)F (centres undefined)
  -0.5%	-30	-12	13%	2	0.8	1
- CCc1ccc(-c2cc(C(=O)N/N=C/c3ccccn3)[nH]n2)cc1
  7.0%	13	-1	-11%	?	2.3	?
- O=C(CSc1ncc(-c2ccc(F)cc2)n1Cc1ccco1)Nc1ccc2c(c1)OCO2
  0.9%	0	-24	-11%	-25	-3.0	?
- Cc1ccc(S(=O)(=O)N2CCC(C(=O)NNC(=O)c3ccccc3O)CC2)cc1C
  1.8%	7	17	/	-5	-4.2	-19
- CCOC(=O)C(NC(=O)CC)(Nc1ccc(S(=O)(=O)Nc2ncccn2)cc1)C(F)(F)F (centres undefined)
  0.3%	1	1	15%	-3	-2.8	6
- O=C(NCc1ccccc1)c1ccc2c(=O)n(CC3CCCO3)c(=S)[nH]c2c1 (centres undefined)
  1.0%	-3	15	3%	0	-2.9	-2
- O=C(CSCc1ccccc1)N=Nc1c(O)[nH]c2ccccc12
  -2.0%	7	-18	-4%	3	0.0	-9
- CC1Cc2ccccc2N1C(=O)c1ccc2nccnc2c1 (centres undefined)
  1.5%	6	12	-2%	2	4.7	2
- O=[N+]([O-])c1cccc(S(=O)(=O)Nc2ccc(Cc3ccncc3)cc2)c1
  -0.3%	0	-17	10%	/	-3.4	0
- Cn1nnnc1SCc1ccc(C(=O)Nc2ccc(Br)cc2)cc1
  4.5%	/	-24	-1%	1	2.0	10
- O=C(NC(=S)Nc1ccc(Cl)cc1Cl)C1CC1
  4.7%	-8	-8	9%	7	2.7	0
- CC(C)c1ccc(OCC(=O)NC(Cc2c[nH]c3ccccc23)C(=O)O)cc1 (centres undefined)
  1.6%&0.3%	-2	0	?	12	-1.1	10
- COC(=O)C(CCSC)NC(=O)/C=C/c1ccc(OC)cc1 (centres undefined)
  0.8%	5	-19	10%	8	1.8	-10
- CC1(C(=O)NS(=O)(=O)c2cccc(F)c2)CCN1C(=O)C1(c2ccc(Cl)cc2)CCC1 (centres undefined)
  0.0%	/	5	/	6	2.5	-3
- COc1ccc(C(=O)NC(=S)Nc2ccccc2N2CCCCC2)cc1[N+](=O)[O-]
  5.8%	-5	-31	9%	?	-2.7	?
- C=CCn1c2ccccc2c2nnc(SCCN3CCOCC3)nc21
  -0.2%	5	-1	?	-2	-1.1	-8
- COc1ccc(C(=O)N(C)Cc2ccc(OC)c(OC)c2OC)cc1S(=O)(=O)N1CCOCC1
  -0.2%	/	-5	/	-12	-2.4	9
- CC(=O)c1ccc(NC(=O)c2noc3c2CCCCC3)cc1
  -2.9%	10	-3	-10%	4	1.9	1
- COc1ccc(C(=O)N(C)C2CCCCC2)cc1OC1CCN(C(C)C)CC1
  -1.8%	10	-14	8%	0	2.3	2
- Cc1csc(-c2cnn(-c3ccccc3)c2NC(=O)c2ccccc2)n1
  -1.4%	?	-8	-3%	-4	1.6	-1
- CC(Sc1nnc(NC2CCCCC2)s1)C(=O)Nc1ccc2c(c1)C(=O)c1ccccc1C2=O (centres undefined)
  -1.1%	-7	0	6%	0	0.4	-75*

Limited to Six1-Eya2 blk, TRPV1 PAM and Sfp PPTase inh, for some of the entries so far:
structure	Six1-Eya2 blk	TRPV1 PAM	Sfp PPTase inh
COc1ccc(C(=O)NC(=S)Nc2ccccc2N2CCCCC2)cc1[N+](=O)[O-]	?	-5	9%
CC1(C(=O)NS(=O)(=O)c2cccc(F)c2)CCN1C(=O)C1(c2ccc(Cl)cc2)CCC1 (centres undefined)	-3	/	/

Going on with the list:
Each structure is followed by: PINK1 expr mod	TRPV1 PAM	D2 PAM	Sfp PPTase inh	CtBP-E1A blk	D2 ag	Six1-Eya2 blk
- O=C(Cn1cnc2c(cnn2-c2ccccc2)c1=O)Nc1ccc(S(=O)(=O)N2CCOCC2)cc1
  0.3%	-3	-6	12%	0	-0.7	12
- Cc1nc2c(Cl)cccc2[nH]1
  1.1%	-1	-2	18%	4	-0.4	3
- CC(=O)Nc1ccc(C(=O)COC(=O)C2CC2C)c(F)c1 (centres undefined)
  4.0%	-5	-2	/	0	1.4	4
- COc1ccc(C(=O)NC2CC3CCCC(C2)N3CC(C)C)cc1OC (centres undefined)
  -3.1%	-6	-26	-3%	3	-2.1	-2
- CC[C@]12c3[nH]c4cc(CCC(=O)N(C)C)ccc4c3CCN1C(=O)[C@@H](CC(=O)NCCc1ccccn1)C[C@@H]2C(=O)N1CCN(C(=O)c2ccco2)CC1
  0.6%	/	-2	/	2	-1.3	-1
- CCOC(=O)c1c(N)sc(C(=O)N2CCOCC2)c1C
  2.5%[38.3 µM]	-6	1	16%	0	-5.2	2
- CC(=O)c1c(C)[nH]c(C(=O)Nc2nc(-c3ccccc3)c(C)s2)c1C
  8.5%	-13	-23	-5%	-19	-1.8	-13
- N#Cc1ccc(N2CCN(C(=O)c3cccs3)CC2)c(F)c1
  1.9%	-12	-7	1%	5	5.5	-7
- Nc1cc(S(=O)(=O)N2CCCCC2)ccc1Oc1ccc(Cl)cc1
  ?	2	-13	-2%	/	3.6	-10
